Source: PubChem BioAssay
Beta2AR agonist = beta2AR agonists driving receptor internalization, primary screen, cell-based, FAP fluorogen, flow cytometry; Beta-2 adrenergic receptor (Homo sapiens), P07550; Am2.2-beta2AR cells; reference of the scale not given here; response, % (concentration not given with the values); 340,000 tested, 0.43% active; AID 504454, 2011;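 active = response above a set limit, near 3 SD of response in nonfluorescent compounds, cut at about 42% in these data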;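 also: stock transfer was 100 nL into about 11 µL; a reference agonist was the positive control; negative values mostly stem from fluorescent compounds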
HNF4A DNA FP = change in binding of human HNF4A to DNA, primary screen, biochemical, fluorescence polarization, FITC-DNA; 1 h; activity change, % at 10 µM; 360,000 tested, 0.3% active; in the data active = activity change above about 30%, passing the limit was not always enough;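 also: controls were the assay level and a saturating level of protein; the project sought stronger binding though the title names inhibitors; some compounds called inactive have numbers as strong as hits; positive values seem to mean higher polarization but the record does not say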
Target sequence (P41235 whole entry, looked up): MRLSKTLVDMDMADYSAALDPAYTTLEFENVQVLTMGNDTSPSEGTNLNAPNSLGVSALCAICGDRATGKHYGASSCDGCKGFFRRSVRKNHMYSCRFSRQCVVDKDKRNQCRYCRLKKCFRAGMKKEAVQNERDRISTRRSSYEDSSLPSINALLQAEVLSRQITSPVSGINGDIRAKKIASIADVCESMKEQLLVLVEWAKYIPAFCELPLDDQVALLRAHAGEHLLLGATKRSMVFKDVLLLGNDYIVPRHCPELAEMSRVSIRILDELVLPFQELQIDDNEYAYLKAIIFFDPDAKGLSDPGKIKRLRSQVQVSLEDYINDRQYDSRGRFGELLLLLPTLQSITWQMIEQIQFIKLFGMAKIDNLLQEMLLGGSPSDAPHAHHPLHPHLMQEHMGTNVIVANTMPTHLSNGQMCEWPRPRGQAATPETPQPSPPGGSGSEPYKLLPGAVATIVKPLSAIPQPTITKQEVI
UCH37 DUB inh = inhibitors of human UCH37 deubiquitinase, primary screen, biochemical, Ub-AMC cleavage, fluorescence. 330,000 tested, 0.33% active. AID 588478, 2011. inhibition, % (test concentration not listed). purified proteasome/UCH37;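 active = mean of two replicates above 20%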;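 also: 0% = compound-free wells with enzyme and 100% = wells lacking proteasome; stock transfer was 100 nL into about 20 µL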
Target sequence (Q9Y5K5 whole entry, looked up): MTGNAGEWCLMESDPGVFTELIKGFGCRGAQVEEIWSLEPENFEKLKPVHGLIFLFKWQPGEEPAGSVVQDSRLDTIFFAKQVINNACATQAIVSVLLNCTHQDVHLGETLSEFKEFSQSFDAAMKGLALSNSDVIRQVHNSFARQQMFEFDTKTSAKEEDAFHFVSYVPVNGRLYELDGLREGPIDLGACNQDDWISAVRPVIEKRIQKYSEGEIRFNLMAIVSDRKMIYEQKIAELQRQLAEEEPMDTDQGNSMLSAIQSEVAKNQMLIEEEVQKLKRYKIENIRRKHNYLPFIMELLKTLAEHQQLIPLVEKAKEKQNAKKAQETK
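Material: human UCH37 enzyme supplied as purified proteasome complex. Measure: % inhibition of Ub-AMC cleavage fluorescence. Medium: pH 7.4 Tris-HCl (50 mM) with ovalbumin, ATP-MgCl2, DTT. Times: 30 min preincubation with enzyme, 25 min cleavage at room temperature. Detection: AMC fluorescence intensity at 355/460 nm.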
ALR inh = inhibitors of human ALR sulfhydryl oxidase, primary screen, biochemical, H2O2 detection, HRP-luminol luminescence, single point | FAD-linked sulfhydryl oxidase ALR (Homo sapiens), P55789 | purified ALR, DTT oxidation | inhibition, % (concentration not given with the values) | 290,000 tested, 3.8% active | AID 485317, 2010;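 active = mean and each replicate at 75% or more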;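 also: stock transfer was 7.5 nL into about 7.5 µL; 0% = neutral wells and 100% = wells with inactivated enzyme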
Target sequence (P55789 whole entry, looked up): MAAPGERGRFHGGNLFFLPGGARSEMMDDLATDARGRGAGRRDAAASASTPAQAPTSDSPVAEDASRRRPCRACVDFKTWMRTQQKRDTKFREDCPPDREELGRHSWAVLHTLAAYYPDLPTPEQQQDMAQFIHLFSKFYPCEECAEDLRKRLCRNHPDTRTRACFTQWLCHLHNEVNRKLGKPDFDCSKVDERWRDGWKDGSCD
rRNA inh HTS = reduced GFP signal of wild-type E. coli, primary screen, bacterial rRNA inhibitor project, GFP/RFP fluorescence, OD600, single point. E. coli WT GFP vs humanized-ribosome RFP mutants, 24 h; hits give low values; DMSO median 0, no signal -100. 350,000 tested, 1.6% active. GFP signal change (wild-type ribosome), % (no concentration beside the values);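 active = significant combined selectivity score with lowered wild-type GFP, culture density cut under 30%, mutant RFP and density less affected; inactive = any of these conditions unmet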; also: one replicate is shown; some compounds called inactive have numbers as strong as hits
FGF22 binding = binders of human FGF22 protein, primary screen, FGF22 synaptogenesis inhibitor project, biophysical, thermal shift, single point | Fibroblast growth factor 22 (Homo sapiens), Q9HCT0 | recombinant FGF22 thermal shift, SYPRO orange fluorescence; percent of sucrose octasulfate shift, DMSO zero | calls only at 9.99 µM | 340,000 tested, 1.5% active;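 active = melting point raised past a set limit in the mean and every replicate; three in four hits are not shown here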
E coli growth = E. coli growth inhibition, primary screen, OD600. 330,000 tested, 0.21% active. Escherichia coli growth, 23 h; hits give low values. OD600 absorbance (concentration not given with the values). AID 1053175, 2014;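 active = OD600 absorbance below the run mean of sample wells minus 3.6 SD, in any replicate, cut at about 0.56 in these data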;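 also: stock transfer was 300 nL into about 60 µL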
rRNA inh HTS OD600 = recorded beside rRNA inh HTS, whose call it bears; OD600 change, %; measured here: OD600 growth;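 optical density of the mix in the first replicate; 0 = DMSO median and -100 = no signal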
rRNA inh HTS RFP = further read-out of rRNA inh HTS, marked with its call; RFP signal change, %; measured here: RFP humanized mutant strains;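 first replicate; 0 = DMSO median and -100 = no signal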
* hit, by the source's call; i = inactive; / = no result given; & = joins results of further samples; ! = repeats disagree. The list is partial; count on the stated rates, not on these rows.

SMILES	Beta2AR agonist	HNF4A DNA FP	UCH37 DUB inh	ALR inh	rRNA inh HTS	rRNA inh HTS OD600	rRNA inh HTS RFP	FGF22 binding	E coli growth
CCN(CC)c1ccc(NC(=O)C2CC3CCC2C3)cc1 (configuration not stated)	11.8	-1.2	-3.3	99.0*	/	/	/	/	0.705
c1ccc(CCNc2ccccn2)nc1	-3.1	0.5	1.3	/	0.5	8.9	1.9	i	0.686
CCOC(=O)C1C(=O)C=C(c2ccc(C)cc2)CC1c1ccco1 (configuration not stated)	1.1	-1.7	0.5	20.4	/	/	/	/	0.691
COc1ccccc1CNC(=O)CCNC(=O)C1CCN(S(=O)(=O)c2ccccc2)CC1	8.2	-4.8	4.9	-2.2	2.4	10.4	0.4	i	0.676
COc1ccccc1NC(=S)NC(=O)CCc1ccccc1	10.0	-0.8	/	-6.5	-7.9	-4.4	1.7	i	/
Cc1ccc(-c2c[n+]3c(n2-c2ccccc2)CCC3)cc1	2.3	-3.2	3.1	-8.0	-13.9	-11.6	-4.6	i	0.669
CC1(C)C(=S)N(Cc2ccccc2)c2ccccc21	1.4	-0.2	0.7	-4.8	-16.2	-12.3	-1.7	i	0.689
CCOCCCNC(=O)Cn1nc(Cc2ccncc2)c2ccccc2c1=O	5.0	-0.8	1.5	1.1	21.3	13.6	1.6	i	0.7
CC1CCC2(CC1)NC(=O)N(Cc1cccc(C(F)(F)F)c1)C2=O (configuration not stated)	-15.0	2.6	2.3	5.4	-5.8	-5.7	0.4	i	0.677
O=C(Cn1c[n+](CC(=O)c2ccc([N+](=O)[O-])cc2)cn1)c1ccc([N+](=O)[O-])cc1	0.3	-2.5&-1.9	7.0&3.2	98.8*!	9.4&4.4	10.3&-2.2	-1.6&-4.0	i	0.622&0.673
Cc1cc(C)n(-c2ccc(Cl)c(C(=O)O)n2)n1	4.5	-2.0	0.8	/	/	/	/	/	0.706
COc1ccc(C(=O)Nc2ccccc2NC(=O)c2ccc(OC)cc2)cc1	-4.9	0.9	3.2	-2.1	/	/	/	i	0.658
Cc1cc(C)c(/C([O-])=C(/C(=S)Nc2ccc(SC(F)F)cc2)[n+]2ccccc2)cc1C	0.4	4.2	5.8	-4.5	-38.2	-49.8	0.3	i	0.71
Cc1ccccc1NC(=O)CSc1nc2[nH]c(=O)cc(O)c2s1	-9.1	5.6	5.1	/	2.5	6.3	3.4	/	0.708
COc1ccc(C)cc1NC(=O)COC(C)=O	5.3	-3.1	2.2	-13.1	/	/	/	/	0.616
O=C1N=c2ccccc2=C1c1[nH]c(=S)[nH]c1O	-3.7	0.8	1.8	-5.1	-0.5	3.7	-1.6	i	0.698
Cc1ccc(NC(=O)c2ccc(Cl)c(S(=O)(=O)NCc3ccco3)c2)c(O)c1	6.3	-1.4	4.0	6.9	-9.4	-46.0	-16.4	i	0.707
CCOC(=O)c1ccc(NC(=O)N2C3CCCC2CC(NC(C)=O)C3)cc1 (configuration not stated)	4.1	0.9	0.9	/	1.6	11.3	-1.1	i	0.651
COCCN(C(=O)COC(=O)CSc1ccc2ccccc2c1)c1c(N)n(Cc2ccccc2)c(=O)[nH]c1=O	0.3	0.0	4.1	98.2*	3.3	5.0	-0.4	i	0.687
Cc1cc(C)cc(NC(=O)c2ccc(S(=O)(=O)N(C)CC3CCCO3)cc2)c1 (configuration not stated)	3.4	-2.4	-2.2	-2.0	-30.2	-34.9	-5.8	i	0.739

One compound at a time, as listed above. Values in the order: Beta2AR agonist	HNF4A DNA FP	UCH37 DUB inh	ALR inh	rRNA inh HTS	rRNA inh HTS OD600	rRNA inh HTS RFP	FGF22 binding	E coli growth
Cc1ccccc1NC(=O)CSc1nc2[nH]c(=O)cc(O)c2s1 across the screens: -9.1	5.6	5.1	/	2.5	6.3	3.4	/	0.708
c1ccc(CCNc2ccccn2)nc1 across the screens: -3.1	0.5	1.3	/	0.5	8.9	1.9	i	0.686

Back to the main list; the 5 compounds before the break are reprinted first.
SMILES	Beta2AR agonist	HNF4A DNA FP	UCH37 DUB inh	ALR inh	rRNA inh HTS	rRNA inh HTS OD600	rRNA inh HTS RFP	FGF22 binding	E coli growth
O=C1N=c2ccccc2=C1c1[nH]c(=S)[nH]c1O	-3.7	0.8	1.8	-5.1	-0.5	3.7	-1.6	i	0.698
Cc1ccc(NC(=O)c2ccc(Cl)c(S(=O)(=O)NCc3ccco3)c2)c(O)c1	6.3	-1.4	4.0	6.9	-9.4	-46.0	-16.4	i	0.707
CCOC(=O)c1ccc(NC(=O)N2C3CCCC2CC(NC(C)=O)C3)cc1 (configuration not stated)	4.1	0.9	0.9	/	1.6	11.3	-1.1	i	0.651
COCCN(C(=O)COC(=O)CSc1ccc2ccccc2c1)c1c(N)n(Cc2ccccc2)c(=O)[nH]c1=O	0.3	0.0	4.1	98.2*	3.3	5.0	-0.4	i	0.687
Cc1cc(C)cc(NC(=O)c2ccc(S(=O)(=O)N(C)CC3CCCO3)cc2)c1 (configuration not stated)	3.4	-2.4	-2.2	-2.0	-30.2	-34.9	-5.8	i	0.739
CC(=O)COc1cc(C)cc2oc(=O)cc(-c3ccccc3)c12	-6.2	4.4	0.7	-15.9	13.1	21.5	1.3	i	0.721
O=C(Nc1ccccc1N1CCN(C(=O)c2ccc(Cl)cc2)CC1)c1ccc([N+](=O)[O-])o1	7.4	0.2	4.2	-34.9	/	/	/	/	0.682
COC(=O)CNC(=O)COC(=O)c1ccc(OC)c([N+](=O)[O-])c1	1.3	2.5	2.4	-8.4	4.8	17.1	-15.3	i	0.641
C=C(C)COc1ccc(-c2n[nH]c(C)c2-c2ccccc2)c(O)c1	4.7	1.8	1.1	-3.1	/	/	/	/	0.756
COc1ccc2nc(N3C(=O)C(O)=C(C(=O)c4ccco4)C3c3ccc(C)o3)sc2c1 (configuration not stated)	17.8	8.4	8.4	/	-4.6	-22.4	-0.9	/	0.659
O=C(Nc1ccc(CN2CCOCC2)cc1)c1ccc2ccccc2c1	9.7	0.5	0.6	-6.3	-3.8	-0.8	-4.3	i	0.647
CCOC(=O)c1cnn(C)c1NC(=O)c1ccc(Cl)cc1Cl	6.5	1.7	-0.4	2.5	9.5	4.6	0.5	/	0.698
Cc1cc(C)c(-n2nnnc2SCC(=O)c2cccs2)c(C)c1	-8.4	-1.2	6.8	-6.6	16.6	16.7	2.6	i	0.653
Cc1ccc(C)c(N2CCN(C(=O)CCc3nc(-c4cccc(Cl)c4)no3)CC2)c1	-7.6	4.2	0.4	/	3.5	14.8	3.7	i	0.718
CC1CCN(S(=O)(=O)c2cc([N+](=O)[O-])ccc2Cl)CC1	-11.1	1.5	5.4	-8.8	2.4	-8.1	-1.2	i	0.734
COc1ccccc1-c1nc(S(=O)(=O)c2ccccc2)c(N2CCCCC2)o1	-4.2	-4.2	3.8	10.8	4.5	5.2	-1.2	i	0.663
CNCCCOc1cc(C)cc(C)c1C	2.2	-1.3	2.9	-6.7	17.8	15.5	6.1	i	0.673
Cc1cc(=O)oc2c1c(C(F)(F)F)nn2-c1ccccc1	-4.4	8.3	3.2	10.8	/	/	/	i	0.682
CCN(CC)C(=O)CSc1nc(-c2ccco2)cc(C(F)(F)F)c1C#N	-19.6	1.4	-88.6	-3.2	/	/	/	/	0.737
CCCn1c(SCC(=O)Nc2ccc(OC)cc2[N+](=O)[O-])n[nH]c1=O	-2.9	5.3	-0.5	-39.6	5.6	-2.8	-1.1	i	0.744
CCCCN(C=O)c1c(CC)nc2ccc(C(=O)N(C)Cc3ccco3)cn12	/	2.0	/	/	6.6	6.9	0.1	i	/
CCC(=O)c1ccc(Oc2ccc(C(=O)c3ccc(C)cc3)cc2[N+](=O)[O-])cc1	-3.4	1.2	2.4	-2.1	6.7	1.5	-4.4	i	0.695
COc1cccc(CN(C)Cc2cc(=O)oc3c(C)c(C)ccc23)c1	22.0	-2.4	3.4	-2.6	-3.0	-22.4	-1.0	i	0.684
Cc1cc2oc(C(=O)NCCc3ccc(S(N)(=O)=O)cc3)cc(=O)c2cc1C	2.6	-1.5	-1.7	-2.4	0.9	14.6	2.3	i	0.719
CC1C(=O)N2CCCc3cc(NC(=O)C(=O)NCCN4CCOCC4)cc1c32 (configuration not stated)	6.7	2.4	-1.9	0.4	6.4	10.9	-2.0	i	0.631
CCN1CCCC(OC(=O)C(c2ccccc2)c2ccccc2)C1 (configuration not stated)	9.1	1.0	-0.5	-5.0	/	/	/	i	0.645
CCOC(=O)c1cc2sc(C)cc2n1CC(=O)NCc1ccc(F)cc1	1.9	-5.8	3.4	-5.5	10.4	4.2	8.9	i	0.722
COc1ccc(NC(=S)Nc2ncccc2C)c(OC)c1	4.9	1.4	1.8	99.0*	-31.4*	-9.1*	-3.8*	i	0.63
CNC(=O)c1c(NC(=O)CCS(=O)(=O)c2ccccc2)sc2c1CCN(C(=O)OC)C2	-7.5	7.0	5.4	4.5	4.1	10.7	-1.6	i	0.698
O=C(NN=C1C2CC3CC(C2)CC1C3)c1cccc(S(=O)(=O)N2CCOCC2)c1	0.3	0.1	0.7	1.9	/	/	/	/	0.663
CC(C)CN1C(=O)c2ccc(NC(=O)Cc3ccccc3)cc2C1=O	3.7	-7.5	-39.1	-14.8	16.6	18.4	2.9	i	0.678
NS(=O)(=O)c1ccc(CCNC(=S)NC2CCCCC2)cc1	3.0	-3.9	3.3	-0.1	-26.5	-35.9	-18.3	i	0.665
COc1cccc2cc(C(C)N(CCCN3CCOCC3)C(=O)Nc3ccccc3)oc12 (configuration not stated)	12.4	-1.1	-0.7	-3.6	/	/	/	/	0.749
O=[N+]([O-])c1ccccc1OCCN1CCCC1	-8.2	0.5	-0.4	-4.7	8.5	-4.1	-0.8	i	0.711
CCCCCc1nnc(NC(=O)NS(=O)(=O)c2ccc(C)cc2)s1	12.0	1.3	5.4	-4.9	-8.0	-3.7	-5.6	i	0.655
CCCNc1nc2c(c(=O)[nH]c(=O)n2C)n1CCc1ccccc1	-0.7	4.1	5.0	-4.2	13.7	13.2	0.0	i	0.727
CC1(C)C2CCC1(CS(=O)(=O)NC1CCCC1)C(=O)C2 (configuration not stated)	0.0	-1.1	5.2	-4.6	8.5	1.6	2.0	i	0.717
CCOc1ccc(OCCOc2cccc(C(F)(F)F)c2)cc1	-5.0	2.8	3.9	/	/	/	/	/	0.766
CCOC(=O)C1CCN(C(=S)Nc2ccccc2)CC1	-3.5	-0.3	-2.3	-3.3	2.9	2.4	-0.1	i	0.675
CC(C)c1ccc(CCNC(=O)CCNC(=O)c2ccc(Br)cc2)cc1	4.3	-2.1	3.4	13.7	3.5	12.2	1.9	i	0.685
Cc1cc(NC(=O)CCC(=O)N(c2ccc(F)cc2)C(C(=O)NC2CCCC2)c2ccc(C)o2)no1 (configuration not stated)	-3.2	0.9	0.8	-1.4	3.5	20.6	-0.8	i	0.668
O=C(COc1ccc([N+](=O)[O-])cc1)Nc1cc(S(=O)(=O)N2CCCCC2)ccc1N1CCCCC1	-1.9	-1.3	2.8	0.0	7.0	17.0	-1.3	i	0.721
CC(NC(=O)c1cc(=O)[nH]c2ccccc12)c1ccccc1 (configuration not stated)	3.2	0.9	-22.4	3.2	11.0	8.3	-1.6	i	0.653
O=C(Nc1cccnc1)/C(N=Nc1cccnc1)=C(\O)c1ccccc1	-11.8	5.3	4.7	/	/	/	/	/	/
